Screens from PubChem.
CSC inhib = cancer stem cell inhibition. cancer stem cell-like cells viability, luminescence. AID 2717. 300,000 compounds, 1.1% hits. inhibition, % at 7.5 µM;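 active = mean at 75% or more and at least half the replicates too; inconclusive = mean and replicates disagree; tested in HMLE shEcad cells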;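 note: 0% = median of negative and 100% = median of positive control wells; the first replicate is given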
Rce1 inh = yeast Ras-converting enzyme inhibition | 290,000 compounds, 0.27% hits | calls only | Q03530 | yeast membranes, quenched prenylated peptide cleavage fluorescence;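 active = fall in fluorescence gain of 50% or more versus controls, with final raw signal at or below 3038400; inconclusive = same 50% fall but final raw signal above 3038400; inactive = fall in fluorescence gain under 50%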;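 note: plate controls were neutral control wells for no effect and wells lacking membranes for full effect; tested at 10 µM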
Yeast UUG start = yeast start codon fidelity modulation. S. cerevisiae UUG-firefly luciferase reporter, luminescence/redox ratio. activity score, % at 18.7 µM. 350,000 compounds, 0.13% hits. AID 602363;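 active = replicate mean at a twofold rise or more, about +100% in these data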;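 note: firefly luciferase made from a UUG start codon reports start codon fidelity; reporter light over untreated wells divided by growth signal over untreated wells; some hits fall short of that in this replicate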
eIF4H inh = inhibitors of RNA binding by human eIF4H. inhibition, % at 35 µM. 290,000 compounds, 0.94% hits. Q15056. AID 2012. eIF4H fluorescence polarization binding assay;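 active = 50% or more with normal probe brightness, or confirmed in later tests; inconclusive = above 50% with abnormal brightness, or retests that disagree; inactive = below 50% or failed in later tests; about a fifth of its hits are not listed in these tables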;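 note: calls also rest on retests at 20 µM and on dose response follow-up; 0% = protein and probe with vehicle and 100% = probe without protein; strong numbers were not always called active; many hits fall short of the cut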
MT1-MMP act inh = inhibitors of human MT1-MMP activation | 360,000 compounds, 0.061% hits | HT1080 RFP-PRO-GFP cells, GFP/RFP ratio fluorescence, overnight; percent of plate control window, DMSO zero | P50281 | GFP/RFP ratio change, % at 20 µM;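 active = GFP/RFP ratio change of at least 30% with cell ATP level not reduced by more than half and red fluorescence within 50% of control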; note: strong numbers were not always called active
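Material: RFP-PRO-GFP reporter HT1080 cells. Dosing: single-point 20 µM compound, 1% DMSO. Controls: DMSO and RFP-L50D-GFP cell wells. Timing: cells overnight before dosing, compound overnight, 37 °C, 5% CO2. Measure: GFP/RFP fluorescence ratio.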
Env fusion inh = blocks HIV Env-driven cell-cell fusion; HeLa-JRFL Env/CEM21 cell fusion, luciferase; inhibition, % at 12.3 µM; 360,000 compounds, 1.1% hits; AID 651610;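 active = mean replicate inhibition score of at least 50 and every replicate individually at or above 50; inconclusive = only one of the two criteria met; inactive = mean below 50 and not all replicates reaching 50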;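 note: 0% = plate neutral controls and 100% = maraviroc near 300 nM; one replicate is shown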
PABP FP inh = blocks human PABP binding to poly(A) RNA | P11940 | fluorescence polarization | inhibition, % at 35 µM | 290,000 compounds, 1% hits | AID 2014;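 active = 50% or more with normal probe brightness, or confirmed in later tests; inconclusive = above 50% with abnormal brightness, or retests that disagree; inactive = below 50% or failed in later tests; about a fifth of its hits are not listed in these tables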;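 note: calls also rest on retests at 20 µM and on dose response follow-up; controls were probe without protein and protein plus probe with vehicle; some compounds called inactive have numbers as strong as hits; many hits fall short of the cut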
Target sequence (P11940 whole entry, looked up): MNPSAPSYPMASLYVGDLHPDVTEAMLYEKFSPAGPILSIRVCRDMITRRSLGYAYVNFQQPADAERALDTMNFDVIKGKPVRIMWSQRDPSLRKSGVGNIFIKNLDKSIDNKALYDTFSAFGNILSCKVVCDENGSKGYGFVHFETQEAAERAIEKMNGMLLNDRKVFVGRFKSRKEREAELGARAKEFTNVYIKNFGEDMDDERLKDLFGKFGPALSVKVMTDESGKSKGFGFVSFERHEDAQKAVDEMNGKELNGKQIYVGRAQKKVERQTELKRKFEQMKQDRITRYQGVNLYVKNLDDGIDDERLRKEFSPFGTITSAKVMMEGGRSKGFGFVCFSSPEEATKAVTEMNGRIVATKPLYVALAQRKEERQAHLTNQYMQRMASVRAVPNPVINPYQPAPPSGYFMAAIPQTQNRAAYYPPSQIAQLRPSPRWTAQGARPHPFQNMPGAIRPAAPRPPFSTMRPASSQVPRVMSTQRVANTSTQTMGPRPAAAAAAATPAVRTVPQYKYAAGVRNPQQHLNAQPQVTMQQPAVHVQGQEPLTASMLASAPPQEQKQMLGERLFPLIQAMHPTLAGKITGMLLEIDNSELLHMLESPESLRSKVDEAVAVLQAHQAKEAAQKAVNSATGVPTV
eIF4H inh retest = also measured in eIF4H inh; calls as there; inhibition, %; compound at 20 µM; confirmation average;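 mean of two retest wells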
PABP FP inh retest = also measured in PABP FP inh; calls as there; inhibition, %; compound at 20 µM; confirmation repeats;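 mean of two retest wells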
MT1-MMP act inh RFP = also measured in MT1-MMP act inh; calls as there; RFP signal change, %; measured here: RFP expression control read;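 0 = vehicle wells; hits needed this value within 50% of zero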
Starred values were filed as active, the others as inactive; i = inactive; ? = inconclusive; / = not tested or not shown; & = joins results of further samples.

SMILES	CSC inhib	Rce1 inh	Yeast UUG start	eIF4H inh	MT1-MMP act inh	MT1-MMP act inh RFP	Env fusion inh	PABP FP inh	others
Cc1csc(NC(=O)COc2ccc3c(c2)CCC3)n1	/	/	-19	/	-1	-2	-47	/
COc1ccc(Cn2cc3c(-c4ccc(F)cc4)nnc-3c3cc(OC)c(OC)cc32)cc1	28	/	-20	0	0	-1	24	28
COC(=O)/C=C/c1cnc2ccccc2c1	8	i	/	-6	1	2	?	-2
COC(=O)c1cn(NC(=O)c2ccc(OC)c(OC)c2)c(=O)c2ccccc12	2	i	-14	5	6	2	-2	-6
CCC(=O)Nc1nc2c(OC)ccc(C)c2s1	-7	i	-10	0	1	0	4	-6
COc1ccc(-c2cnc(C(O)c3ccc(CN4CCCCC4)cc3)[nH]2)cc1 (stereo not given)	/	/	-11	/	3	0	-17	/
C=CCn1c(SCC(=O)NCC2CCCO2)nnc1C1CCCCC1 (stereo not given)	-18	/	-20	-6	-1	3	6	4
COc1cc(C(=O)N2CCN(C(=O)c3cc(-c4ccc(Br)cc4)n[nH]3)CC2)cc(OC)c1OC	-9	i	-3	-4	0	-13	-4	9
O=C1CN(C(=O)c2cc3ccccc3oc2=O)C(c2ccc(F)cc2)c2cc(F)ccc2N1 (stereo not given)	2	i	-1	4	-2	-2	-13	18
Cn1nc(C(=O)N2CCOCC2)c([N+](=O)[O-])c1C(=O)N1CCOCC1	-7	i	/	-8	0	4	10	-1
O=C(COc1nncc2ccccc12)NCCC1=CCCCC1	-5	i	-13	2	7	5	5	9
CC(=O)Nc1ccc(OC(=O)COc2ccc(Br)cc2)cc1	/	i	-13	10	-4	-3	-41	3
COc1ccc(NC(C)=O)cc1NC(=O)c1c(C)noc1C	/	/	-16	/	2	3	-43	/
CC(=O)Nc1ccc(NC(=O)CSc2nnc(C)n2-c2ccccc2)cc1	-18	i	-11	-15	-4	3	9	2
CCOc1cc(/C=C2/SC(=S)N(CC(=O)O)C2=O)ccc1OC(=O)c1cccs1	-5	i	-4	-1	26	61	-24	9
COc1cccc(-n2c(SCC(=O)N3c4ccccc4CC3C)nnc2-c2ccco2)c1 (stereo not given)	3	/	6	-14	-3	-8	/	1
Cc1ccnc(NS(=O)(=O)c2ccc(NC(=O)c3ccc(Cl)cc3[N+](=O)[O-])cc2)n1	8	i	-7	0	4	1	-5	-1
CC(=O)Oc1ccc2ccccc2c1C(NC(=O)C(C)C)c1cccc([N+](=O)[O-])c1 (stereo not given)	20	i	-12	-6	-12	-7	/	13
CC(C)c1ccc(N2C(=O)CC(NNC(=O)c3cccnc3)C2=O)cc1 (stereo not given)	-13	i	-5	4	1	5	9	6
O=C(NC1CCN(S(=O)(=O)c2ccc(F)cc2)CC1)c1cccnc1	/	i	-16	-7	-2	0	11	3
COc1ccc(NC(=O)Nc2ccc(Br)cn2)cc1	1	/	/	2	-1	-1	-16	9
CN1CCN(C(=O)CCS(=O)(=O)c2cc3c(cc2Cl)NC(=O)CO3)CC1	-6	i	-15	-1	3	4	-18	-2
CC1CC(C)CN(c2ccc([N+](=O)[O-])cc2-c2nn[nH]n2)C1 (stereo not given)	/	i	-27	-2	5	5	10	1
CCOC(=O)C1=CCN(S(=O)(=O)c2ccccc2C)C1c1ccc(F)cc1 (stereo not given)	/	/	-11	/	-2	-2	23	/

The final two records of the part above open the next one:
SMILES	CSC inhib	Rce1 inh	Yeast UUG start	eIF4H inh	MT1-MMP act inh	MT1-MMP act inh RFP	Env fusion inh	PABP FP inh	others
CC1CC(C)CN(c2ccc([N+](=O)[O-])cc2-c2nn[nH]n2)C1 (stereo not given)	/	i	-27	-2	5	5	10	1
CCOC(=O)C1=CCN(S(=O)(=O)c2ccccc2C)C1c1ccc(F)cc1 (stereo not given)	/	/	-11	/	-2	-2	23	/
COc1ccc2nc(NC(=O)C3CCN(S(=O)(=O)c4cccnc4)CC3)sc2c1	7	i	2	4	-3	-14	26	8
N#CCCN=C(NS(=O)(=O)c1ccccc1)c1ccccc1	0	i	-33	-2	-4	-2	9	2
O=C(Nc1cccc2nsnc12)c1cccs1	2&5	i	-10&-10	10&1	-8&-7	-3&-4	-76&-88	1&-5
O=C(CSc1nnc(-c2ccc(Cl)cc2)n1CC1CCCO1)NC1CCS(=O)(=O)C1 (stereo not given)	-20	i	/	-5	-7	-7	0	-4
O=C1NC[C@H](c2ccccc2)N(CC2CCCCC2)C1=O	-20	i	-13	0	0	0	-9	7
CCC1Oc2ccc(C)cc2N(CC(=O)NCc2cccc(OC)c2)C1=O (stereo not given)	4	i	3	-2	2	-2	-16	4
Cn1c(SCC(=O)Nc2nnc(-c3ccccc3)o2)nnc1C1CC1	-9	/	-34	-8	2	6	4	-7
O=c1c2ccccc2nc2n1CCC2O (stereo not given)	9	i	-18	-1	3	2	/	2
CC1Cn2c(nnc2-c2cccc(N)c2)S1 (stereo not given)	-8	i	-20	-10	3	10	-24	-20
COC(C)c1oc2c(C)c3oc(=O)cc(C)c3cc2c1C (stereo not given)	1	i	/	/	4	2	2	/
Cc1ccc(CN2C(=O)/C(=C\c3ccc(C(=O)NCc4cccnc4)cc3)Oc3ccccc32)cc1	108*	i	/	-9	/	/	48	-11
COc1cc(/C=C/C(=O)OCC(=O)Nc2ccc3c(c2)OCO3)ccc1O	25	/	-21	/	0	0	/	/

Random excerpt: four compounds from above.
SMILES	CSC inhib	Rce1 inh	Yeast UUG start	eIF4H inh	MT1-MMP act inh	MT1-MMP act inh RFP	Env fusion inh	PABP FP inh	others
Cn1c(SCC(=O)Nc2nnc(-c3ccccc3)o2)nnc1C1CC1	-9	/	-34	-8	2	6	4	-7
CCC1Oc2ccc(C)cc2N(CC(=O)NCc2cccc(OC)c2)C1=O (stereo not given)	4	i	3	-2	2	-2	-16	4
O=C(Nc1cccc2nsnc12)c1cccs1	2&5	i	-10&-10	10&1	-8&-7	-3&-4	-76&-88	1&-5
O=C1NC[C@H](c2ccccc2)N(CC2CCCCC2)C1=O	-20	i	-13	0	0	0	-9	7

Remaining list, next part
SMILES	CSC inhib	Rce1 inh	Yeast UUG start	eIF4H inh	MT1-MMP act inh	MT1-MMP act inh RFP	Env fusion inh	PABP FP inh	others
COCCCn1cn[nH]c1=S	2	i	/	5	-4	0	3	-3
CCOC(=O)C(CC)n1cnc2sc3c(c2c1=O)CCC3 (stereo not given)	13	i	-11	4	0	6	/	4
Cc1nc(C)c(CCNC(=O)c2cccc(Cl)c2)s1	/	i	-11	46	7	6	-6	-8
CC(Oc1ccc(Cl)cc1)C(=O)N1CCCc2ccccc21 (stereo not given)	-1	i	-15	-5	-1	1	24	-4
C=CCOc1nc2c(c(=O)n(C)c(=O)n2C)n1Cc1ccccc1	0	i	/	1	-4	-16	-1	-5
O=C(COc1ccc(Cl)cc1Cl)NCCCN1CCOCC1	-11	i	-5	-5	3	0	-12	14
Cc1onc(-c2ccccc2)c1C(=O)OCC(=O)Nc1ccc2c(c1)OCO2	10	/	-2	-5	7	-4	8	-2
CN(CCOC(=O)/C=C/c1ccccc1)C(C)(C)C	-8	i	1	0	-8	0	/	-10
O=C1NC(c2ccc(F)cc2)Oc2ccccc21 (stereo not given)	-12	i	-1	-3	-2	-1	-9	1
CCN(CC)CCOCCOc1cc(C)c(Cl)c(C)c1	89*	i	12	-5	2	5	28	10
CN(C)/C=C(\C=O)c1ncc(C(F)(F)F)cc1Cl	3	i	/	-1	-7	7	-11	-8
O=C1CN(C(=O)c2ccc(Cl)c([N+](=O)[O-])c2)c2ccccc2N1	-10	i	-12	-2	1	3	13	-4
CCOC(=O)C1CCN(S(=O)(=O)c2cn(C)c(=O)n(C)c2=O)CC1	2	i	-4	1	0	1	-6	7
Cc1ccc(NC(=O)COC(=O)CCc2c(C)nc3ncnn3c2C)cc1C	/	/	-6	/	-3	4	i	/
COc1ccc(OC(=O)CCCN2C(=O)c3ccccc3C2=O)cc1	-5	i	/	-2	10	1	-31	0
COc1cc(CNC(C)(C)CO)cc(Br)c1OCc1ccccc1	36	i	-5	4	2	0	-13	-1
CSc1ncc(Cl)c(C(=O)Nc2cccc(C)c2)n1	-9	i	/	12	0	-4	6	-2
Cc1ccc(S(=O)(=O)NC2=NCCCCC2)cc1	0	i	-19	-4	-2	-2	0	16
COc1ccc(Cc2nnc(NC(=O)c3cccc([N+](=O)[O-])c3C)s2)cc1	1	i	28	0	10	1	15	-1
CN(Cc1ccc(C(F)(F)F)cc1)C(=O)[C@H]1O[C@@H](n2cnc3c(N)ncnc32)[C@H](O)[C@@H]1O	/	/	-14	/	2	-3	-11	/
CCOc1ccc(NC(=O)C(C)O)c(NS(=O)(=O)c2ccc(CCNC(C)=O)cc2)c1 (stereo not given)	-7	i	-19	-2	-3	-1	/	-13
Cc1ccc(N2C(=O)C(Cl)=C(Nc3c(C)n(C)n(-c4ccccc4)c3=O)C2=O)cc1	-7	i	-4	-13	4	2	/	0
COc1ccc(NS(=O)(=O)c2cccc(C(=O)NNC(=O)c3cccn3C)c2)cc1	-2	i	-3	74*	-3	-1	-9	33	eIF4H inh retest=66*;PABP FP inh retest=37
Brc1ccc([C@H]2CN3CCSC3=N2)cc1	-11	i	-1	/	2	2	13	/
O=c1cc(CN2CCN(c3ccccc3)CC2)c2c(ccc3ccccc32)o1	15	i	-6	45	-8	-8	/	36
Cc1ccc(Oc2nnc(-c3cccs3)c3ccccc23)cc1	/	i	/	13	9	1	-8	8
COc1ccccc1/C=C/C(=O)OCC(=O)N1CCCCC1	-1	/	4	/	3	-1	-3	/
O=C(COC(=O)CC1CC2CCC1C2)NC(=O)NCc1ccco1 (stereo not given)	-10	i	-21	-6	4	4	-16	-8
O=c1cc(O)c2ccccc2n1Cc1ccccc1F	1	i	/	-6	-3	-2	-3	7

Of the compounds above, these contain a furan ring, fused or not:
SMILES	CSC inhib	Rce1 inh	Yeast UUG start	eIF4H inh	MT1-MMP act inh	MT1-MMP act inh RFP	Env fusion inh	PABP FP inh	others
COc1cccc(-n2c(SCC(=O)N3c4ccccc4CC3C)nnc2-c2ccco2)c1 (stereo not given)	3	/	6	-14	-3	-8	/	1
COC(C)c1oc2c(C)c3oc(=O)cc(C)c3cc2c1C (stereo not given)	1	i	/	/	4	2	2	/
O=C(COC(=O)CC1CC2CCC1C2)NC(=O)NCc1ccco1 (stereo not given)	-10	i	-21	-6	4	4	-16	-8
